GIV-Gai inh = inhibitors of GIV peptide binding to Galpha-i3, primary screen, biochemical, fluorescence polarization, FITC-GIV GBA peptide, rat Galphai3; percent of control (FP), % (test concentration not listed); 90 min; stronger effect = lower value; scaled: aluminum fluoride 0%, vehicle 100%; Guanine nucleotide-binding protein G(i) subunit alpha-3 (Rattus norvegicus), P08753; hit rate 0.42% among 210,000;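 active means replicate mean at 85% of control or lower, very high polarization wells dropped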;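 further: wells of about 15 µL received 100 nL stock; the first replicate is given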
Target sequence (P08753 whole entry, looked up): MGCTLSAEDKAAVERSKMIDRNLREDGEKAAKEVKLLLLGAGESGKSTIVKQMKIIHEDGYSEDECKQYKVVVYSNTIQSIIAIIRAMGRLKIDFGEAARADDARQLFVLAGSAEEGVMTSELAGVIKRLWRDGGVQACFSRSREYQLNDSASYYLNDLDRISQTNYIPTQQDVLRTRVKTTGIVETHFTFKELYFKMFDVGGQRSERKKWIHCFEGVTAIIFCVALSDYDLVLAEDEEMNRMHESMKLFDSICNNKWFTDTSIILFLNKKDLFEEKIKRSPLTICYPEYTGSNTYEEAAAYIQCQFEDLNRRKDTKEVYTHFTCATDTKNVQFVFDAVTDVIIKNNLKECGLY
* hit, by the source's call.

A first look (7 entries):
GIV-Gai inh	mol
107	CCc1cc2c(NCCCOC)ncnc2s1
117	CCOc1ccc2nc(/N=C/c3nc(-c4ccc([N+](=O)[O-])cc4)oc3O)sc2c1
101	COc1ccc(CCNC(=O)c2sc3ncnc(N4CCN(c5ccccn5)CC4)c3c2C)cc1OC
112	O=C(NCc1cccnc1)c1cc2nc(-c3ccc4c(c3)OCO4)cc(C(F)(F)F)n2n1
118	Fc1cccc(Cl)c1-c1noc(-c2cc(-c3ccncc3)nc3ccccc23)n1
101	COC(=O)C1=C(C(=O)OC)SC(=C2C(=S)C(C)(C)N(C(=O)c3ccc(F)cc3)c3c(OC)cccc32)S1
126	COCCNC(=O)c1ccc2c(=O)n(Cc3ccco3)c(SCC(=O)N(C)Cc3ccccc3)nc2c1

All compounds of this part (from the top)
GIV-Gai inh	mol
107	CCc1cc2c(NCCCOC)ncnc2s1
117	CCOc1ccc2nc(/N=C/c3nc(-c4ccc([N+](=O)[O-])cc4)oc3O)sc2c1
101	COc1ccc(CCNC(=O)c2sc3ncnc(N4CCN(c5ccccn5)CC4)c3c2C)cc1OC
112	O=C(NCc1cccnc1)c1cc2nc(-c3ccc4c(c3)OCO4)cc(C(F)(F)F)n2n1
118	Fc1cccc(Cl)c1-c1noc(-c2cc(-c3ccncc3)nc3ccccc23)n1
101	COC(=O)C1=C(C(=O)OC)SC(=C2C(=S)C(C)(C)N(C(=O)c3ccc(F)cc3)c3c(OC)cccc32)S1
126	COCCNC(=O)c1ccc2c(=O)n(Cc3ccco3)c(SCC(=O)N(C)Cc3ccccc3)nc2c1
107	COc1cc(C2Oc3ccc(Cl)cc3C3CC(c4ccco4)=NN32)cc(OC)c1OC (centres undefined)
119	CCn1c(=O)/c(=C\C=C2\N(C)c3ccc(-c4ccccc4)cc3C2(C)C)s/c1=C1\C(=O)N(c2ccccc2)N=C1C
106	Cc1cc2nc(-c3ccc(F)cc3)c(-c3ccc(F)cc3)nc2cc1C
109	COc1cc(OC)c(OC)cc1/C=C1N=C(/C=C/c2ccc(Cl)cc2Cl)OC\1=O
103	COCCCNC(=O)c1cn(C)c2c(c(C)nn2-c2ccc(F)cc2)c1=O

Going on with the list.
GIV-Gai inh	mol
110	CCOc1ccc(NC(=O)Nc2c(-c3ccccc3)[nH]c3ccccc23)cc1
101	Cc1cc(C)c(S(=O)(=O)N2CCCC2c2nc(-c3ccccc3)no2)c(C)c1 (centres undefined)
99	CC(C)c1ccc2nc(-c3cccc(NS(=O)(=O)c4cnc[nH]4)c3)ccc2c1
104	CCCCc1nn2c(=O)cc(CN(CCC)Cc3ccc(C)cc3)nc2s1
99	Cn1c(N2CCC(C(=O)Nc3ccc(F)cc3)CC2)cc(=O)n(C)c1=O
102	O=C(c1ccc(C(F)(F)F)s1)N1CCCN(c2nnc3ccc(Cl)cn23)CC1
102	Cc1c(CSc2nnc(-c3ccco3)n2-c2ccccc2)cccc1-c1ccccc1
103	CC1CCCC(NC(=O)Cn2c(=O)c3ccccc3n(C)c2=O)C1C (centres undefined)
102	Cc1cccc(NC(=O)Nc2cc(F)c3nc(N4CCCC4)ccc3c2)c1
113	COC(=O)C1=C(C(=O)OC)SC(=C2C(=S)C(C)(C)N(C(=O)C(C)C)c3cc(C)ccc32)S1
98	O=C1CN(Cc2c(F)cccc2Cl)S(=O)(=O)c2ccccc2N1Cc1ccccc1
104	CCOC(=O)C1=C(N)Oc2ccc3ccccc3c2C1c1ccc([N+](=O)[O-])cc1 (centres undefined)

Next section:
GIV-Gai inh	mol
104	CN(C)c1ncncc1N1CCC(C(=O)NC2CCCC2)CC1
119	COc1ccc(C2=NN(c3nc(C)c(C(C)=O)s3)C(c3ccco3)C2)cc1 (centres undefined)
103	O=C1CC(c2ccc(OC3CCCC3)cc2)c2cnn(-c3nc4ccccc4s3)c2N1 (centres undefined)
102	Cc1ccc(C)c(C(=O)CSc2n[nH]c(-c3ccncc3)n2)c1
110	CCSc1nc2ccc(NC(=O)CSc3nc4ccccc4[nH]3)cc2s1
110	CCOc1ccc(C2C(N3C(=O)c4ccc([N+](=O)[O-])cc4C3=O)C(=O)N2c2cc(Cl)ccc2C)cc1 (centres undefined)
101	COc1ccc(C2CC(=O)NC(SCC(=O)Nc3cc(Cl)cc(Cl)c3)=C2C#N)cc1 (centres undefined)
113	CN1CCN(S(=O)(=O)c2cc3c(c([N+](=O)[O-])c2)-c2c(cc(S(=O)(=O)N4CCN(C)CC4)cc2[N+](=O)[O-])C3=O)CC1
102	COC(=O)c1ccccc1NC(=O)CSc1n[nH]c(-c2ccc(F)cc2)n1
97	CCOC(=O)c1[nH]c(C)c(CN(Cc2ccc(OC)cc2)S(=O)(=O)c2cc(C)ccc2C)c1C
110	CCOC(=O)C1=C(O)/C(=C\c2cc(OC)c(OC)c(OC)c2)SC1=Nc1cccc(Cl)c1
101	Cc1c(CCNC(=O)c2ccccc2)sc2nc(-c3ccc(F)cc3)nn12

Given in markdown: part of the list above.
| compound | GIV-Gai inh |
| --- | --- |
| O=C(c1ccc(C(F)(F)F)s1)N1CCCN(c2nnc3ccc(Cl)cn23)CC1 | 102 |
| CCOC(=O)c1[nH]c(C)c(CN(Cc2ccc(OC)cc2)S(=O)(=O)c2cc(C)ccc2C)c1C | 97 |
| CCCCc1nn2c(=O)cc(CN(CCC)Cc3ccc(C)cc3)nc2s1 | 104 |
| COC(=O)C1=C(C(=O)OC)SC(=C2C(=S)C(C)(C)N(C(=O)c3ccc(F)cc3)c3c(OC)cccc32)S1 | 101 |
| COc1ccc(CCNC(=O)c2sc3ncnc(N4CCN(c5ccccn5)CC4)c3c2C)cc1OC | 101 |

Other entries:
GIV-Gai inh	mol
107	O=C(NN=C1CSc2sc(=S)sc2SC1)c1cccnc1
105	CCc1ccccc1NC(=O)c1ccc(F)c(S(=O)(=O)NC2CCCCC2)c1
111	COc1ccc2c(c1)-c1c(ssc1=S)C(C)(C)N2CC(=O)Oc1ccccc1
100	O=C(CN1C(=O)CN(C(=O)Nc2ccccc2)c2ccccc21)NCc1ccc(Cl)cc1
99	CC(=O)N1CCCc2cc(S(=O)(=O)N3CCC(C(=O)N4CCN(c5cc(C)ccc5C)CC4)CC3)ccc21
106	CCc1ccc(N=c2ssc3c2-c2cc(C)ccc2NC3(C)C)cc1
110	CCN(CC)CC(=O)Nc1ccc2c(c1)N(C(=O)CN(CC)CC)c1ccccc1CC2
100	CCc1cc(C2CCCN2C(=O)NC(C)C)on1 (centres undefined)
98	CCOC(=O)C1=C(C)NC2=C(C(=O)C(C(=O)OCC)C(c3cccc(OC)c3)C2)C1c1cc(C)sc1C (centres undefined)
107	CCOC(=O)c1c(NC(=O)C(C)Sc2nnc(CNC(=O)c3cccc(F)c3)n2C)sc2c1CCCCC2 (centres undefined)
110	CSCCC(Nc1ncnc2c1oc1ccccc12)C(=O)O (centres undefined)
107	CCC(=O)Nc1cccc(-c2noc(C3CCCN(C(=O)c4cc5ccccc5[nH]4)C3)n2)c1 (centres undefined)

New compounds follow
GIV-Gai inh	mol
101	CC(C)CC(=O)N1CCC(C(=O)NCCc2csc(-c3cccs3)n2)CC1
142	Fc1ccc(-c2noc(Cc3nc(-c4ccc(Br)cc4)cs3)n2)cc1
112	Nc1ncc(-c2ccccc2)nn1
104	Cn1cc(C(=O)O)c(S(=O)(=O)N2CCOCC2)n1
107	CCOC(=O)c1c(NC(=O)Cn2cnc([N+](=O)[O-])n2)sc2c1CCC2
104	CCCCN1CCN(Cc2nc3nc(C)cc(N4CCCC4)n3n2)CC1
101	Cc1ccc2oc(SCc3noc(CCC(=O)Nc4cc(C)on4)n3)nc2c1
106	CCOC(=O)N1CCN(c2ncnc3c2cnn3-c2ccc(OC)cc2)CC1
106	O=C(CSc1nnc(SCC(=O)Nc2cccc([N+](=O)[O-])c2)s1)Nc1cccc([N+](=O)[O-])c1
106	CCOC(=O)C1=C(C(=O)OCC)SC(=C2C(=S)C(C)(C)N(C(=O)COc3ccc4ccccc4c3)c3c(C)cccc32)S1
105	COc1ccccc1CNc1ccc(C(=O)N2CCCC2)cc1S(=O)(=O)Nc1cccc(C(F)(F)F)c1
111	CCCc1cc(C2CCCN2Cc2ccc(OC)c(O)c2)no1 (centres undefined)

Additional compounds follow:
GIV-Gai inh	mol
97	CCc1nnc(-c2cc(NS(C)(=O)=O)c(C)s2)o1
92	Cc1[nH]n(-c2ccccc2)c(=O)c1C(c1ccc(C(F)(F)F)cc1)c1c(C)[nH]n(-c2ccccc2)c1=O
96	Cc1sc(-c2cc(C(F)(F)F)on2)cc1S(=O)(=O)N1CCc2ccccc21
108	CCCCC(=O)N1c2ccc(OC)cc2C2=C(SC(C(=O)OCC)=C(C(=O)OCC)C23SC(C(=O)OCC)=C(C(=O)OCC)S3)C1(C)C
109	O=C(Nc1cnc(N2CCN(c3ccc(F)cc3)CC2)c(C(=O)O)c1)c1ccc(F)cc1
108	O=C(Nc1ccccc1)Nc1nc2c(s1)CN(S(=O)(=O)c1ccccc1)CC2
102	O=C(c1ccc(OCC2CCCN(C(=O)C3CCCCC3)C2)cc1)N1CCCCC1 (centres undefined)
101	COc1cc(OC)cc(C(=O)N2CCN(c3nc4ccccc4n(C)c3=O)CC2)c1
114	COc1ccc(C2NC(=O)C(=O)/C2=C(\O)c2ccc(Br)cc2)cc1OC (centres undefined)
103	Fc1ccc(CNC2=NCCNC23CCCCCC3)cc1
98	Cc1ccc(-c2nc3ccccc3c3nnc(SCC(=O)NC(C)C)n23)cc1
103	CCCc1cc(C2CCCN2C(=O)c2c(-c3ccccc3Cl)noc2C)no1 (centres undefined)

Other compounds:
GIV-Gai inh	mol
120	COC(=O)C(NC(=O)c1ccccc1OC)(Nc1sc2c(c1C#N)CCC(C(C)(C)C)C2)C(F)(F)F (centres undefined)
106	O=C(Nc1ccc(C(F)(F)F)cc1)c1cc(S(=O)(=O)N2CCN(c3ccccc3)CC2)ccc1F
101	O=C(Cn1cnc2nc(N3CCC(C(=O)N4CCCCC4)CC3)sc2c1=O)N1CCCCC1
99	Cc1ccc(C(=O)Nc2c(C(=O)NCc3ccc4c(c3)OCO4)[nH]c3ccc(C)cc23)cc1
112	COCCNc1nc(SCc2cccc([N+](=O)[O-])c2)nc2ccccc12
108	O=C(NCCCN1CCCCC1)c1ccc(Cn2c(=S)[nH]c3ccc(Br)cc3c2=O)cc1
98	CCc1cc(C2CCCN2S(=O)(=O)c2ccc(F)cc2)on1 (centres undefined)
107	O=c1ccc(-c2ccc3c(c2)OCO3)nn1CCc1nc(-c2ccc3c(c2)OCO3)no1
103	c1ccc(N2CCN(c3ncnc4c3CCC4)CC2)nc1
103	COc1ccc(CNC2=NCCNC23CCCCC3)cc1
111	CC1=C(C)CS(=Nc2ccccc2[N+](=O)[O-])N(S(=O)(=O)c2ccccc2)C1 (centres undefined)
103	CC(C)NC(=O)N1CCC(c2nc(CCNC(=O)C3CCC3)cs2)CC1

The list continues.
GIV-Gai inh	mol
104	O=C1CN(Cc2c(F)cccc2Cl)S(=O)(=O)c2ccccc2N1Cc1ccc(F)cc1
107	Cc1nnc(-c2ccc(S(=O)(=O)NC3CCCCCC3)o2)o1
102	CCCCOC(=O)CSc1nnc(-c2ccccc2)c(=O)[nH]1
105	Cc1ccc(C(=O)NCc2nc(-c3ccc4c(c3)ncn4C)no2)cc1
106	CCCC(=O)N(c1ccc2oc(C)c(C(=O)OCC)c2c1)S(=O)(=O)c1ccc2ccccc2c1
102	CC(C)c1cc(C2CCCN2S(=O)(=O)c2ccccc2F)on1 (centres undefined)
97	CCn1c(SCc2cc(=O)n3ccccc3n2)nc2c3cc(OC)ccc3n(C)c2c1=O
102	Cc1ccc(C)c(N2C(=O)/C(=C/c3ccc(-c4cc(Cl)ccc4Cl)o3)C=C2c2ccccc2)c1
103	CC(C)(C)Nc1nc(Cl)nc(NCCN2CCOCC2)n1
103	CCCN1CCN(S(=O)(=O)c2ccc(-c3nnc(C4CCCC4)o3)o2)CC1
102	Cc1ccc2nc(-c3ccccc3NC(=O)c3ccccc3F)ccc2c1
105	COc1ccc(-c2c(-c3ccccc3)sc(=Nc3ccccc3)n2-c2ccccc2)cc1

Remaining list, next part.
GIV-Gai inh	mol
106	CC1(C)CC(=O)C2=C(C1)c1c(ccc3ccccc13)NC2c1ccccc1OCc1ccc(Cl)cc1Cl (centres undefined)
107	CC(C)(C)C(=O)N1CCc2nc[nH]c2C1
115	COc1cc(OC)c(/C=c2/sc3n(c2=O)C(N)=C(C#N)C(c2cc(Br)c(OC)cc2OC)C=3C#N)cc1Br (centres undefined)
110	CCOC(=O)c1[nH]c(C)c(CN(Cc2ccc(C)cc2)C(=O)Nc2ccc(OCC)cc2)c1C
102	CCOC(=O)C1CCCN(c2ncnc3scc(-c4ccccc4)c23)C1 (centres undefined)
98	Cc1ccc(-c2nc(CNC(=O)c3cccnc3Cl)no2)cc1
113	COc1ccc(C2C(C(=O)OC(C)C)=C(C)N=c3s/c(=C/c4cc([N+](=O)[O-])ccc4N4CCN(C)CC4)c(=O)n32)cc1 (centres undefined)
103	CC1(C)Cc2ccccc2/C(=C/[N+](=O)[O-])N1
110	Cc1ccccc1C(=O)Nc1ccc(N2CCN(c3ccccc3Cl)CC2)c(C(=O)O)c1
111	CC(=O)N1CCC(=O)c2cc3ccccc3cc21
104	O=C1c2ccccc2-c2cc(=O)n(C3CCCCC3)c3ccc(Br)c1c23
109	CCOc1ccc(NC(=O)c2sc3ncnc(N4CCCCC4)c3c2C)cc1

(continued)
GIV-Gai inh	mol
110	Cc1ccc(-c2nn(-c3ccccc3)cc2C2SCC(=O)N2Cc2ccccc2)o1 (centres undefined)
107	Cc1cc(C)c2c(c1)-c1c(sn(-c3ccc(Cl)cc3)c1=S)C(C)(C)N2
102	CCOc1ccc(-n2c(=S)sc3c2nc(SCC(=O)c2ccccc2)n2c4ccccc4nc32)cc1
107	O=C(Nc1ccc2c(c1)OCO2)N1CCC2(CC1)Nc1ccccc1-n1cccc12
103	CC1(C)CC2(CC(c3ccccc3Cl)Oc3cc(O)ccc32)NC(=S)N1 (centres undefined)
115	CSc1ccccc1NC(=O)c1ccc(N2CC3CC(C2)c2cccc(=O)n2C3)c(NC(=O)/C=C/c2ccccc2)c1 (centres undefined)
109	COCCn1c(C2CCN(C(=O)c3ccc(Cl)s3)C2)nc2cccnc21 (centres undefined)
104	Cc1cc(C)n(-c2nc(Nc3ccccc3)nc(-n3nc(C)cc3C)n2)n1

Source: PubChem BioAssay

Some of the compounds tested. The share of hits here may be higher or lower than overall.
